MARV entry inh: Marburg virus entry inhibition | Marburg virus pseudotyped entry inhibition, cell reporter; control for the full effect not named in the record; about a third of the inactives were read at about 46 µM | Potency, µM (top dose mostly 37.8 µM), for the others: top-dose activity change, negative = inhibition, usual class: inhibitors | 300,000 compounds, 1.8% hits | AID 540276; active = well fitted inhibition curve with a large enough effect; inconclusive = small, poorly fitted or top-dose-only effect, or effect the other way; inactive = flat fitted curve, though single readings scatter; tested in HEK293 cells; about a fifth of its hits are not listed in these tables; note: % is set by controls: 0 for no effect and ±100 for the full control effect; luciferase read-out
SARS PLpro yeast: blocks SARS-CoV papain-like protease in a yeast assay | AID 485353 | 330,000 compounds, 0.19% hits | Potency, µM (top dose mostly 32.9 µM), inactives show at the top dose activity, positive = growth rescue | S. cerevisiae expressing SARS-CoV PLpro, growth rescue; control for the full effect not named in the record; active means well fitted rising curve with a large enough effect; inconclusive means small, poorly fitted or top-dose-only effect; inactive means no such curve, though single readings can be large or run the other way; note: 0% is about no effect; nearly all actives have a fitted effect of over 55% in size; growth read by luminescence after 48 h
RE007 growth inh: less growth of the S. pombe RE007 Vpr strain | S. pombe RE007 Vpr strain, BacTiter-Glo ATP luminescence, 24 h; control for the full effect not named in the record | Potency, µM (doses to about 92.2 µM), without a hit: at the top dose activity change, negative = less growth | 360,000 compounds, 0.21% hits | AID 651644; active = well fitted falling curve with a large enough effect; inconclusive = small, poorly fitted or top-dose-only effect; inactive = no such curve, though single readings can be large or run the other way;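 note: % is set by controls: 0 for no effect and ±100 for the full control effect; nearly all actives have a fitted effect of over 50% in size; the assay follows cell death caused by Vpr and the record does not say whether a fall means rescue or toxicity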
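Fission yeast RE007 carrying one integrated HIV-1 vpr copy, seeded at OD 0.01 in PMG+AL medium with 23 nL pinned compound. Grown 24 h at 30 degrees; viability read by BacTiter-Glo luminescence after 5 min.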
2A StopGo: FMDV 2A StopGo reporter, luciferase signal; human cells with a luciferase reporter of 2A StopGo recoding; control for the full effect not named in the record; Potency, µM (highest dose often 57.9 µM), for the others: top-dose signal change, negative = less light; 410,000 compounds, 1.2% hits; AID 1159524; active = well fitted falling curve with a large enough effect; inconclusive = small, poorly fitted or top-dose-only effect; inactive = no such curve, though single readings can be large or run the other way; tested in HEK293T cells; note: % is set by controls: 0 for no effect and ±100 for the full control effect; nearly all actives have a fitted effect of over 45% in size; luciferase light after 4 h
Cruzain inh noDet: blocks cruzain activity in detergent-free assay; P25779; Potency, µM, inactives show max response, negative = inhibition, usual class: inhibitors; 200,000 compounds, 2.3% hits; purified cruzain, Z-FR-AMC fluorescence, no detergent;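 note: plate controls were enzyme without inhibitor for no effect and buffer without enzyme for full effect; nearly all actives have a fitted effect of over 40% in size; top concentration of the series not given in the record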
Target sequence (P25779 123-467 limits assumed): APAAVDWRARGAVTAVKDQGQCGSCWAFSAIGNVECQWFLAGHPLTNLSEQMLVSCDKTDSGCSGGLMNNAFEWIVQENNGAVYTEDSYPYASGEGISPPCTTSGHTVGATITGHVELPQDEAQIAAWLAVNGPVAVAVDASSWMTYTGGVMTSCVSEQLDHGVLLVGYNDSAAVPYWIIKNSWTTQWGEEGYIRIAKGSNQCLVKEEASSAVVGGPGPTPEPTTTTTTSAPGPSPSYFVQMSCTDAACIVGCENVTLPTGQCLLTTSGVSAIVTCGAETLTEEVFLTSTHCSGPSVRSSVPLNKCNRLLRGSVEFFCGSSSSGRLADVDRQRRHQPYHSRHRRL
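Detergent-free condition (0.00005% Triton X-100) in acetate buffer pH 5.5 with DTT. 1.5 nM enzyme and compound were pre-mixed 15 min, then 2 uM Z-FR-AMC substrate added; reaction progress from fluorescence change between first and third reads (60 s).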
NS1 inh: influenza NS1 inhibition | AID 2326 | S. cerevisiae slowed by influenza A NS1, growth recovery by OD600 | Potency, µM (doses to about 46.1 µM), inactives show at the highest dose activity, positive = more growth | 270,000 compounds, 0.4% hits; active means well fitted rising curve with a large enough effect; inconclusive means small, poorly fitted or top-dose-only effect; inactive means no such curve, though single readings can be large or run the other way; note: nearly all actives have a fitted effect of over 50% in size
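Growth recovery, yeast-based: influenza A NS1 expressed in S. cerevisiae causes slow growth, and suppressors are detected by OD600. The parent strain without NS1 is used as positive control.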
Lassa entry inh: blocks Lassa virus binding to or entry into cells | Lassa virus pseudotype entry inhibition, cell reporter; control for the full effect not named in the record | Potency, µM (doses to about 37.9 µM), without a hit: at the top dose activity change, negative = inhibition, actives largely listed as inhibitors | 300,000 compounds, 1.2% hits | AID 540256; active means well fitted inhibition curve with a large enough effect; inconclusive means small, poorly fitted or top-dose-only effect, or effect the other way; inactive means flat fitted curve, though single readings scatter; tested in HEK293 cells; note: % is set by controls: 0 for no effect and ±100 for the full control effect; nearly all actives have a fitted effect of over 50% in size; luciferase read-out
Cruzain inh Det: blocks cruzain activity in presence of Triton detergent. P25779. purified cruzain, Z-FR-AMC fluorescence, 0.01% Triton. Potency, µM, inactives show max response, negative = inhibition, most hits filed as inhibitors. 200,000 compounds, 0.43% hits;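 note: plate controls were neutral wells for no effect and buffer without enzyme for full effect; nearly all actives have a fitted effect of over 40% in size; top concentration of the series not given in the record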
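Cruzain (1.5 nM) preincubated 15 min at RT with compound in 100 mM sodium acetate pH 5.5, 5 mM DTT, 0.01% Triton X-100. Reaction started with 2 uM Z-FR-AMC; AMC fluorescence (ex 360/em 450 nm) change over 60 s gave rate.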
* hit, by the source's call; ? = inconclusive; nt = not tested or not shown; & = joins results of further samples; [ ] = remark or other dose. Unless noted, calls come from the whole dose curve; as a rule, active = well fitted curve in the direction sought with a large enough effect; inconclusive = small, poorly fitted or top-dose-only effect, or another doubt; inactive = no such curve, though single readings can be large; an effect the other way counts as inactive or inconclusive. Potency is the fitted concentration of half-maximal effect.

Results follow in this order: MARV entry inh	SARS PLpro yeast	RE007 growth inh	2A StopGo	Cruzain inh noDet	NS1 inh	Lassa entry inh	Cruzain inh Det
Cc1cccc(C)c1N(CC(=O)NN=C1CCCCCC1)S(C)(=O)=O
→ 15%	-5%	11%	-1%	?	7%	0%	-2.3%
Cc1cccc(Oc2ccccc2NC(=O)CSCC(=O)Nc2cc(C)on2)c1
→ 3.5µM*	-1%	3%	?	nt	nt	?	nt
Cn1c(=O)c2c(nc(CO)n2C)n(C)c1=O
→ 10%[46.1 µM]	5%	27%	-2%	nt	1%	28%	nt
COc1cccc(/C(=N/O)C2CC2c2ccc(Cl)cc2)c1 (stereo not given)
→ -30%[46.1 µM]	-11%	-21%	-23%	nt	nt	nt	nt
Cc1cccc(OCCn2cnc(Cl)c2Cl)c1
→ 22%[46.1 µM]	4%	19%	1%	nt	-8%	25%	nt
O=c1[nH]c(=S)[nH]c2nc(-c3cccs3)cc(C(F)(F)F)c12
→ 9%	0%	24%	-6%	nt	3%	?	nt
COc1ccc2sc(N(CCCN(C)C)C(=O)c3ccc(S(=O)(=O)N4CCCc5ccccc54)cc3)nc2c1
→ ?	2%	13%	-18%	nt	nt	?	nt
COc1ccc(N2CCN(C(CNC(=O)c3ccc(C)cc3)c3ccc4c(c3)OCO4)CC2)cc1 (stereo not given)
→ nt	nt	nt	-18%	7%	nt	?	-4.8%
O=[N+]([O-])c1ccccc1CCc1cnc(Cl)s1
→ -4%[46.1 µM]	0%	-8%	-10%	nt	0%	-6%[46.1 µM]	nt
COCCCN1C(=O)CC(C(=O)OC)=C1C
→ 20%[46.1 µM]	2%	20%	-5%	nt	nt	-22%	nt
Clc1ccccc1Cn1cccc1C1=NC(Cc2ccccc2)CO1 (stereo not given)
→ -20%[46.1 µM]	nt	nt	-25%	2%	nt	14%[46.1 µM]	-7.7%
COn1c(C)c(C(C)=O)c2c3nonc3ccc21
→ -25%	-7%	-6%	-26%	-1%	-9%	-1%	-1.3%
COc1ccc(C)cc1N(CC(=O)N/N=C/c1ccc2c(c1)OCO2)S(C)(=O)=O
→ 0%[46.1 µM]	0%	-13%	-9%	nt	-6%	1%	nt
C=C(C)c1cccc(C(C)(C)NC(=O)N2CCN(c3ccc(OC)cc3)CC2)c1
→ ?	4%	-12%	0%	-1%	19%	-5%	-3.3%
O=C(COC(=O)/C=C/c1ccco1)Nc1ccc(F)cc1Cl
→ 0%[46.1 µM]	0%	-15%	10%	nt	-5%	-7%[46.1 µM]	nt
COc1cc(/C=C(\C(=O)O)c2ccc(S(=O)(=O)N3CCCC3)s2)cc(OC)c1
→ 1%	-3%	-18%	5%	nt	nt	3%	nt
Cc1ccc(C)c(S(=O)(=O)N2CCCC2CNC(=O)C(=O)NCc2ccco2)c1 (stereo not given)
→ ?	-3%	?	-23%	nt	nt	0%[46.1 µM]	nt
CS(=O)(=O)c1ccc(C(=O)OCC(=O)NCc2cccs2)cc1[N+](=O)[O-]
→ ?	-1%	-1%	?	nt	nt	?	nt
O=[N+]([O-])c1ccc(-c2ccc(/C=N/Nc3nc(NCc4ccccc4)nc(N4CCOCC4)n3)o2)cc1
→ 10µM*	-1%	0%	-13%	nt	2%	8%[46.1 µM]	nt
Cn1nc(-c2ccccc2)c(C#N)c1Sc1cccc(Cl)c1
→ -14%	-4%	-20%	nt	-6%	?	19%	-5.7%
COc1cc(CNC(=O)CCn2nc(C)c3c(C)n(-c4ccccc4)nc3c2=O)cc(OC)c1OC
→ nt	1%	4%	-11%	nt	-8%	nt	nt
CC(CNC(=O)C1CCN(C(=O)c2cc3sccc3n2C)CC1)c1ccccc1 (stereo not given)
→ 1%[46.1 µM]	nt	nt	-20%	?	nt	nt	-2.6%
CC1CCN(C(=O)CCCC(=O)O)CC1
→ -17%	0%	-8%	3%	3%	-7%	1%	-2.3%
O=C1C2C3c4ccccc4C(c4ccccc43)C2C(=O)N1c1cccnc1 (stereo not given)
→ -18%	13%	2%	-24%	-7%	3%	?	-0.8%
CN(c1cccc(NC(=O)c2ccc(Cl)c(S(=O)(=O)N3CCOCC3)c2)c1)S(C)(=O)=O
→ ?	-5%	-1%	?	nt	-18%	?	nt
COc1ccc(N(CCC(=O)Nc2ccccc2F)S(=O)(=O)c2ccc(C)cc2C)cc1
→ -30%	1%	5%	55%[activator]	nt	nt	?	nt
CCN(CC)C(=O)c1sc(NC(=S)N2CCN(C(=O)C3CCCO3)CC2)c(C(=O)OC)c1C (stereo not given)
→ -28%[46.1 µM]	-2%	-10%	-10%	nt	21%	11%[46.1 µM]	nt
N#C/C(=C\c1c(Oc2ccc(F)cc2)nc2ccccn2c1=O)c1nc2ccccc2s1
→ ?	nt	nt	-12%	-15%	nt	?	-7.8%
CC(=O)CSc1ncnc2c1oc1ccccc12
→ 17%	2%	-23%	2%	3%	-9%	13%	2.1%
COc1ccc(-c2nc(CN3C(=O)CN=C(c4ccccc4)c4ccccc43)c(C)o2)cc1
→ ?	nt	nt	?	?	nt	-22%[46.1 µM]	-6.3%
CCOC(=O)C1CCN(C(=O)C2CCN(S(=O)(=O)N3CCCC3)CC2)CC1
→ 16%	-3%	1%	16%	-2%	-1%	2%	12%
CCN(CC)c1nc2nonc2nc1N(CC)CC
→ ?	2%	-6%	-11%	-24%	-5%	1%	-6.1%
COC(=O)c1ccccc1NC(=O)CCCn1c(C)c2cnn(-c3ccccc3)c(=O)c2c1C
→ 9%[46.1 µM]	nt	nt	-21%	-4%	nt	4%[46.1 µM]	-1.5%
CC(=O)NC1(C(Cl)(Cl)Cl)Oc2ccccc2O1
→ -18%	0%	-13%	-24%	-4%	7%	8%	4.6%
CCOC(=O)C(NC(=O)Nc1ccc(Cl)cn1)(Oc1ccccc1)C(F)(F)F (stereo not given)
→ 3%	1%	0%	-10%	20%	5%	6%	-0.8%
COc1ccc(OC)c(NC(=O)C2CCN(S(=O)(=O)c3c(C)noc3/C=C/c3ccc(C)cc3)CC2)c1
→ nt	nt	nt	-18%	-20%	nt	17%[46.1 µM]	-2.3%
O=S(=O)(c1cccs1)N1CN(Cc2cccs2)c2nc3ccccc3nc21
→ 5%	6%	-15%	14%	?	-35%	6%	-8.1%
CCCc1nnc(NC(=O)Cn2c(=O)oc3cc(Br)ccc32)s1
→ 13%	-1%	5%	-7%	1%	2%	16%	1.6%
CCC1(C)OC(=O)NN(c2ccc(C)cc2)C1(C)O (stereo not given)
→ -2%	3%	-11%	41%[activator]	-9%	1%	1%	-2.8%
NC(=O)CSc1nnc(COc2ccccc2)n1N
→ nt	1%	-9%	-19%	nt	6%	nt	nt
Cc1ccc(S(=O)(=O)Nc2ccc(Cl)cn2)cc1
→ 0%	-8%	5%	27%	nt	-18%	6%	nt
O=C(COc1ccc(S(=O)(=O)N2CCCC2)cc1)N1CCCC1
→ 15%[46.1 µM]	1%	8%	3%	nt	-4%	10%	nt
CCc1cccc(NC(=O)CC2Oc3ccccc3NC2=O)c1 (stereo not given)
→ nt	2%	6%	-11%	nt	3%	nt	nt
CSCCC(NC(=O)c1cc(C(C)(C)C)oc1C)C(=O)O (stereo not given)
→ -4%	-1%	0%	nt	-1%	7%	1%	3.8%
COc1ccc(-n2ccnc2SCC(=O)Nc2cc(C)on2)cc1
→ ?	5%	1%	-29%	nt	-7%	-22%	nt
CCOc1ccc(NC2OC(CO)C(O)C(O)C2O)c([N+](=O)[O-])c1 (stereo not given)
→ -8%[46.1 µM]	4%	-18%	-7%	nt	nt	11%[46.1 µM]	nt
Cc1c(C(=O)N(C)C)sc(NC(=O)c2cccc([N+](=O)[O-])c2)c1C#N
→ 3%	6%	25%	10%	-5%	8%	26%	-2.4%
O=C(O)c1cc(-n2c(/C=C\c3ccc(F)cc3)nc3ccccc3c2=O)ccc1Cl
→ nt	nt	nt	?	2%	nt	10%[46.1 µM]	0.3%
CCN(CC)CCN=Cc1c(O)n(Cc2ccccc2)c(=O)[nH]c1=O
→ -18%[46.1 µM]	1%&5%	6%&15%	-21%&12%	-7%	-2%&2%	-6%[46.1 µM]	5.0%
CCN(CC)S(=O)(=O)c1ccc2oc(SCC(=O)Nc3cc(C)on3)nc2c1
→ ?	11%	17%	-3%	nt	nt	?	nt
CN(C)S(=O)(=O)c1cccc(NC(=O)CO/N=C(\N)c2ccccc2)c1
→ -13%	nt	9%	21%	nt	nt	8%	nt
CCOC(=O)c1c(C)nc2sc3c(=O)n(-c4ccc(C(C)=O)cc4)nnc3c2c1-c1ccc(OC)cc1
→ ?	-14%	8%	-4%	1%	-6%	?	4.8%
O=C(O)c1ccc(CS(=O)(=O)Cc2ccccc2F)o1
→ 0%	3%	-15%	0%	9%	7%	14%	-2.7%
CN(Cc1ccccc1)Cc1nc2c(c(=O)n(C)c(=O)n2C)n1Cc1ccc(Cl)cc1
→ -1%	-2%	-5%	-5%	?	-96%	?	-1.7%
Cc1c(O[C@@H]2O[C@H](CO)[C@@H](O)[C@H](O)[C@H]2O)ccc2c1oc(=O)c1ccccc12
→ nt	9%	1%	21%	nt	6%	nt	nt
Nc1[nH]c(=O)[nH]c(=O)c1N=Nc1cccc(Cl)c1
→ -3%	0%	6%	12%	nt	2%	12%	nt
O=C(Cc1ccc(Cl)cc1)N/N=C/c1cccc(O)c1
→ nt	-4%	2%	-10%	nt	-12%	nt	nt
O=C(O)c1ccc(NC(=S)NC(=O)C(c2ccccc2)c2ccccc2)cc1
→ -1%	1%	-1%	0%	nt	nt	-7%	nt
COc1ccc(OC)c(NC(=O)c2cc3n(n2)C(C(F)(F)F)CC(c2ccc4c(c2)OCO4)N3)c1 (stereo not given)
→ 2%&-13%	-5%	-4%	0%	?	nt	-7%	-1.0%
O=C(CN1CCN(c2ccc(F)cc2)CC1)c1cccs1
→ 0%	-1%	-1%	-7%	nt	-1%	1%	nt

Screens from PubChem BioAssay.
